From PubChem BioAssay
Sfp PPTase inh – inhibitors of Bacillus subtilis Sfp phosphopantetheinyl transferase | Potency, µM, inactives show max response, negative = inhibition, most hits filed as inhibitors | Biochemical Sfp PPTase activity, qHTS | hit rate 3.5% among 310,000; active means well fitted inhibition curve with a large enough effect; inconclusive means small, poorly fitted or top-dose-only effect, or another doubt; inactive means no such curve, though single readings can be large or run the other way;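 further: the enzyme is Sfp with the accession as filed and its product quenches rhodamine fluorescence; potency means the concentration at half of the fitted maximal effect; 0% = enzyme reaction without inhibitor and -100% = no enzyme wells; top concentration of the series not given in the record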
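Buffer: 50 mM Hepes-Na pH 7.6, 10 mM MgCl2, 0.01% Nonidet P-40, 0.01% BSA. Enzyme 15 nM, pre-exposed to compound 15 min; substrates then added and fluorescence change tracked over 30 min.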
Menin-MLL FL inh – inhibitors of human menin-MLL interaction, wild-type MLL peptide; Fluorescence polarization, fluorescein-MLL peptide displacement from menin; AID 1766; 290,000 tested, under 10 active; FP activity change, % at 61.4 µM; inconclusive = falling polarisation curve, or a change in total fluorescence; inactive = total fluorescence flat and polarisation flat or rising; no compound was filed as active; the % refers to the polarisation; negative = inhibition;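 further: % of control where 0% means no effect; inhibitors lower the polarisation; unlabelled MLL peptide was the positive control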
The depositor's hits bear a star; ? = inconclusive; & = joins results of further samples; [ ] = remark or other dose.

Each structure is followed by: Sfp PPTase inh	Menin-MLL FL inh
CCCn1c(C)nc2c(NC(C)CCCN(CC)CC)nc(C)nc21 (stereo unspecified)
→ 17.8%	-6.2
OC[C@@H]1O[C@@H](n2cnc3c(NC4CCCC4)ncnc32)[C@H](O)[C@H]1O
→ 2.9%	?
COc1ccc(-n2c(=O)c(-c3cccc(C#N)c3)nc3cnc(N4CCNCC4)nc32)cc1
→ -2.3%	5.0
COc1cccc(Cn2c(=O)c(-c3cc(F)cc(F)c3)nc3cnc(OC)nc32)c1
→ ?	-2.7
O=c1[nH]c(=O)c2[nH]c(=O)[nH]c2[nH]1
→ 8.8%	0.6
N[C@@H](Cn1cc(I)c(=O)n(Cc2ccc(C(=O)O)cc2)c1=O)C(=O)O
→ -15.4%	16.1
Cc1noc(C)c1-c1nc(Nc2ccc(F)cc2)c2ccccc2n1
→ ?	-2.5
CC(C)(CS)C(=O)N1CCC[C@H]1C(=O)O
→ 22.4µM*	-0.8[24.8 µM]
COC1=C(OC)C(=O)C(C/C=C(\C)CC/C=C(\C)CC/C=C(\C)CC/C=C(\C)CC/C=C(\C)CC/C=C(\C)CC/C=C(\C)CC/C=C(\C)CC/C=C(\C)CCC=C(C)C)=C(C)C1=O
→ 25.0%	-1.8
CCCCC1=CC2=CC(=O)C(C)(O)C(=O)C2=CO1 (stereo unspecified)
→ -15.9%	2.2
N#Cc1ccc(C[C@@H](NS(=O)(=O)c2ccc(C(=O)O)cc2)C(=O)O)cc1
→ 10.3%	-0.7
O=c1c(-c2ccc(F)cc2)nc2cnc(N3CCNCC3)nc2n1-c1ccccc1
→ -8.2%	-2.6
Cc1nc2cncnc2n(Cc2ccccc2)c1=O
→ 4.5%	0.1
O=C(c1cccc(F)c1)N1CCC[C@@]2(CCN(Cc3nccs3)C2)C1
→ 18.7%	2.0
CCNc1ncc2nc(-c3ccc(F)cc3)c(=O)n(CCc3ccccc3)c2n1
→ 11.6%	?

Of the compounds above, 2 have a cyano group.
Each structure is followed by: Sfp PPTase inh	Menin-MLL FL inh
COc1ccc(-n2c(=O)c(-c3cccc(C#N)c3)nc3cnc(N4CCNCC4)nc32)cc1
→ -2.3%	5.0
N#Cc1ccc(C[C@@H](NS(=O)(=O)c2ccc(C(=O)O)cc2)C(=O)O)cc1
→ 10.3%	-0.7

Following part
Each structure is followed by: Sfp PPTase inh	Menin-MLL FL inh
CCCCC1=CC2=CC(=O)C(C)(OC(=O)c3ccco3)C(=O)C2=CO1 (stereo unspecified)
→ -14.6%	-0.1
COc1ccc(O[C@H]2C=C[C@@H](c3ccccc3)O[C@H]2COC(=O)NCc2cccc3ccccc23)cc1
→ -1.1%	6.0[11.7 µM]
CC1(OC(=O)C2CCCC2)C(=O)C=C2C=C(c3ccsc3)N(c3ccc(CO)cc3)C=C2C1=O (stereo unspecified)
→ 5.7%	-0.1[11.7 µM]
c1cc2c3c(c1)c1c(n3CCNC2)CCCC1
→ ?	?
CC(C)C[C@@H](CC(=O)N[C@@H](CCC(=O)O)CC(=O)O)NC(=O)[C@@H]1CNCC[C@H]1NC(=O)C[C@@H](NC(=O)C[C@H](Cc1c[nH]c2ccccc12)NC(=O)[C@@H]1CCCC[C@H]1N)C(C)C
→ -16.6%	2.8
CC(C)NC(=O)N1CC[C@@]2(CCCN(C(=O)c3csnn3)C2)C1
→ 12.3%	-6.6
Cn1cccc1C(=O)N1CCC2(CCN(Cc3ccccc3)CC2)CC1
→ 20.5%	-2.7
CO[C@@H]1COC(=O)[C@@H](C)COC(=O)[C@@H](C)NC(=O)C/C=C\[C@@H]1C
→ -13.1%	0.3[11.7 µM]
CC(C)c1cccc2cc3c(nc12)-c1cccc(=O)n1C3
→ -5.0%	2.0
Cc1cn(C2CC3OCC(NC(=O)C(NC(=O)OC(C)(C)C)C(C)OCc4ccccc4)C3O2)c(=O)[nH]c1=O (stereo unspecified)
→ 20.2%	-0.7
COc1ccc(CNc2ncnc3ccc(-c4ccoc4)cc23)c(OC)c1
→ -1.7%	14.0
CN1c2cc(O)c(N=NC(N)=O)cc2CC1S(=O)(=O)O (stereo unspecified)
→ -25.8%	-0.1
CNc1ncnc2ccc(-c3ccccc3OC)cc12
→ -11.3%	-1.6
C=CCOC(=O)/C=C/NC(=O)/C=C/C=C/CCCCCCCC(C)O (stereo unspecified)
→ -6.4%&-11.7%	0.1&-5.7[11.7 µM]
CCN1C(=O)[C@H]2[C@H]3[C@H](O)[C@H](O)C/C(=N/OCc4ccccc4)[C@H]3CC[C@@H]2C1=O
→ 4.7%	5.5[11.7 µM]

Going on with the list.
Each structure is followed by: Sfp PPTase inh	Menin-MLL FL inh
CC(=O)OC[C@@H]1O[C@@H](O/N=C2/C[C@@H](O)[C@@H](O)[C@@H]3[C@H]4C(=O)N(c5ccc(F)cc5F)C(=O)[C@@H]4CC[C@H]23)[C@H](OC(C)=O)[C@H](OC(C)=O)[C@@H]1OC(C)=O
→ 10.7%	1.8[11.7 µM]
CC(=O)N(CC(O)CN(C(C)=O)c1c(I)c(C(=O)NC[C@@H](O)CO)c(I)c(C(=O)NC[C@@H](O)CO)c1I)c1c(I)c(C(=O)NC[C@@H](O)CO)c(I)c(C(=O)NC[C@@H](O)CO)c1I
→ 28.7%	1.7[24.8 µM]
CCOC(=O)C1=C[C@@H](C(=O)OCC)[C@@H]2C3=C(C(=O)C2(C)C)[C@H](c2ccccc2)[C@@H]2C(=O)N(c4ccccc4)C(=O)[C@@H]2[C@@H]3C1
→ 10.0%	?
CC(C(=O)O)c1ccc2c(c1)Cc1cccnc1O2 (stereo unspecified)
→ 8.8%	-0.7
Cc1ccc(CNC(=O)C2(CC(C)C)C=CCN2C(=O)c2ccccc2)o1 (stereo unspecified)
→ 39.8µM*	-0.9
Brc1ccc(C2=NCCC(c3ccccc3)O2)cc1 (stereo unspecified)
→ -5.2%	-1.1[94.6 µM]
CCCCCCCCC(=O)NCc1cc(OC)c(O)cc1I
→ -25.0%	?
OC1c2ccccc2-c2nc3ccccc3cc21 (stereo unspecified)
→ 3.8%	-3.5
O=C1[C@H]2[C@H]3[C@H](O)[C@H](O)C/C(=N/OC[C@@H](O)COCc4ccco4)[C@@H]3CC[C@@H]2C(=O)N1Cc1ccc2c(c1)OCO2
→ -4.7%	0.4[11.7 µM]
COc1cccc([C@@H]2Oc3ccc(OC)cc3C(=O)[C@H]2OC(=O)NS(=O)(=O)c2ccc(C)cc2)c1
→ ?	3.2
CC(=O)N[C@@H](C=O)[C@@H](O)[C@H](O)[C@H](O)CO
→ 1.9%	0.7
CC[C@H](C)[C@H](NC(=O)[C@H](C)NC(=O)[C@H](Cc1cnc[nH]1)NC(=O)[C@@H]1CCCN1C(=O)CNC(=O)[C@H](CC(C)C)NC(=O)[C@H](CC(C)C)NC(=O)[C@H](Cc1ccc(O)cc1)NC(=O)CNC(=O)[C@H](C)NC(=O)[C@H](CO)NC(=O)[C@H](CC(N)=O)NC(=O)[C@H](CC(C)C)NC(=O)[C@@H](NC(=O)[C@H](Cc1c[nH]c2ccccc12)NC(=O)CN)[C@@H](C)O)C(=O)N[C@@H](CC(=O)O)C(=O)N[C@@H](CC(N)=O)C(=O)N[C@@H](Cc1cnc[nH]1)C(=O)N[C@@H](CCCNC(=N)N)C(=O)N[C@@H](CO)C(=O)N[C@@H](Cc1ccccc1)C(=O)N[C@@H](CO)C(=O)N[C@@H](CC(=O)O)C(=O)N[C@@H](CCCCN)C(=O)N[C@@H](Cc1cnc[nH]1)C(=O)NCC(=O)N[C@@H](CC(C)C)C(=O)N[C@H](C(N)=O)[C@@H](C)O
→ 8.1%	-0.2
Cn1cccc1C(=O)N1CCC2(CC1)CN(c1ccccn1)C2
→ 5.3%	-0.2
N[C@@H](C(=O)O)c1cc(O)ccc1Cl
→ -1.5%	?
COc1ccc2c(c1)O[C@H](c1ccc3c(c1)OCO3)[C@@H](OC(=O)NS(=O)(=O)c1ccc(C)cc1)C2=O
→ 12.7%	-4.5

New compounds follow.
Each structure is followed by: Sfp PPTase inh	Menin-MLL FL inh
Cc1cc(-n2nc3ccc(Cl)cc3n2)c(O)c(C(C)(C)C)c1
→ -7.4%	1.5
Cc1cc(=O)oc2cc(OC3C=CC(C#CC(C)(C)C)OC3CO)ccc12 (stereo unspecified)
→ -7.2%	2.4[11.7 µM]
Cc1noc(C)c1-c1cc(NCc2ccccc2)ncn1
→ -1.2%	-0.7
CCC[C@H]1C[C@H](C(=O)NC(C(C)Cl)C2O[C@@H](SC)C(OP(=O)(O)O)[C@@H](O)[C@@H]2O)N(C)C1 (stereo partly specified)
→ -12.3%	-0.3
NCCC[C@@H](CC(=O)N[C@@H]1CCNC[C@H]1C(=O)N[C@H](CC(=O)N[C@@H](CCC(=O)O)CC(=O)O)Cc1ccccc1)NC(=O)C[C@H](CO)NC(=O)[C@@H]1CNCC[C@H]1N
→ -3.0%	-1.0
Nc1nc2c(ncn2C2OC(COC(=O)c3ccccc3)C(OC(=O)c3ccccc3)C2OC(=O)c2ccccc2)c(=O)[nH]1 (stereo unspecified)
→ -21.8%	2.0
Cn1cc(-c2nc3cnc(N4CCNCC4)nc3n(CCC#N)c2=O)c2ccccc21
→ -19.5%	?
CCCCS(=O)(=O)N1CCc2nc(COc3ccccc3)c3c(c2C1)CO[C@@H](C)C3
→ 11.4%	-0.7[11.7 µM]
COC(=O)C1=C(C(=O)OC)[C@@H]2Nc3ccccc3[C@@]23C[C@@H](C(=O)OC)N(S(=O)(=O)c2ccc(OC)cc2)C3=N1
→ -13.3%	0.7[11.7 µM]
O=c1cc(-c2cc(O)c(O)c(O)c2)oc2cc(O)cc(O)c12
→ ?	?
CC1(C)SC2C(NC(=O)Cc3ccccc3)C(=O)N2C1C(=O)O (stereo unspecified)
→ 27.0%	0.7
COc1ccccc1/C=C\C(=O)OC[C@@H]1CCCN2CCCC[C@H]12
→ 11.7%	0.3
CCNc1ncc2nc(-c3ccc(F)cc3)c(=O)n(-c3ccc(OC)cc3)c2n1
→ 10.6%	?
CCCCN1CCC2C=CCC(C(=O)O)C2C1=O (stereo unspecified)
→ 7.2%	-9.6
Cc1ccccc1-c1ccc2ncnc(NCCN3CCOCC3)c2c1
→ 7.4%	2.3

The list continues:
Each structure is followed by: Sfp PPTase inh	Menin-MLL FL inh
S=C(Nc1ccccc1)Nc1ccccc1C#Cc1ccccc1
→ 1.5%	0.2
O=C(O)[C@@H]1C[C@H](C(=O)O)N1
→ -24.7%	-4.3&-2.0
C[C@@H](C1=C(CCN(C)C)Cc2ccccc21)c1ccccn1
→ -18.5%	-20.9
Cc1noc(C)c1C(=O)N1CCC2(CCCN(C(=O)Nc3cccc(C#N)c3)C2)CC1
→ 7.9%	7.5
O=C(NC[C@H]1CCCCN1)c1cc(OCC(F)(F)F)ccc1OCC(F)(F)F
→ -5.9%	-16.8
CCC#CCOCC(=O)Nc1ccccc1
→ 14.0%	-1.0
CCCN1CCC(=O)N(CCSc2ccc(Br)cc2)CC1
→ 5.3%	-4.7
COc1ccc(-c2nc3cnc(N4CCN(C)CC4)nc3n(CCC#N)c2=O)cc1
→ 25.0%	?
C=C1C=CS(=O)(=O)N(C(C)C(=O)OC)C1 (stereo unspecified)
→ -10.2%	0.3
C[C@H]1COC(=O)[C@H](Cc2ccccc2)NC(=O)[C@@H](C)COC(=O)[C@H](Cc2ccccc2)NC1=O
→ 7.3%	-0.8[11.7 µM]
COC(=O)CN1CCC(=O)c2ccccc2S1(=O)=O
→ 23.9%	3.6
CNc1ccnc(-c2ccccc2C(F)(F)F)n1
→ 15.2%	0.1
COc1ccc(CNc2ncncc2-c2cccnc2)c(OC)c1
→ -15.0%	-1.3
CO[C@H]1C[C@@H]2CC[C@@H](C)[C@@](O)(O2)C(=O)C(=O)N2CCCC[C@H]2C(=O)OC([C@H](C)C[C@@H]2CC[C@@H](O)[C@H](OC)C2)CC(=O)[C@H](C)/C=C(\C)[C@@H](O)[C@@H](OC)C(=O)[C@H](C)C[C@H](C)/C=C/C=C/C=C/1C (stereo partly specified)
→ -6.7%&-14.6%	4.9
C=C1N[C@]2(C(=O)COC(C)=O)[C@@H](C[C@H]3[C@@H]4CCC5=CC(=O)C=C[C@]5(C)[C@H]4[C@@H](O)C[C@@]32C)O1
→ -1.0%	-1.9

Going on with the list:
Each structure is followed by: Sfp PPTase inh	Menin-MLL FL inh
CC[C@](C)(CN(C)C)OC(=O)c1ccccc1
→ 14.0%	-1.1[24.8 µM]
C[C@@H]1CN2[C@H](c3ccc(Br)cc3)[C@H](C)CC[C@H]2C(=O)O1
→ 18.7%	5.2[11.7 µM]
COc1ccc(-c2nc(-c3ccccc3)oc2Nc2ccccc2C)cc1
→ -18.1%&-10.1%	-0.6&2.0
CCCCC(=O)NCCc1c(Cc2ccccc2)[nH]c2ccccc12
→ -6.4%&0.4%	-1.9
COC(=O)CC1C(C)(C)C(O)C2CC3=C4C=C(OC)OC(c5ccoc5)[C@]4(C)CCC3[C@@]1(C)C2=O (stereo partly specified)
→ -17.4%	-0.6
C/C(CCC(=O)OC[C@@H]1O[C@H](C#Cc2ccccc2)C=C[C@@H]1Oc1ccc(C)cc1)=N/OC[C@@H](O)COCc1ccco1
→ 16.4%	1.0[11.7 µM]
Cn1cc(C(=O)[C@@H]2CCc3[nH]cnc3C2)c2ccccc21
→ -14.6%	3.6
CC[C@]1(c2ccccc2)NC(=O)NC1=O
→ 9.8%	6.6
COC(=O)[C@@H]1C[C@H]1[C@@H](NC(=O)c1ccc(Br)cc1)c1ccccc1
→ 9.8%	-5.4
COc1ccc2c(c1)C(=O)[C@H](OC(=O)N[C@H]1CCCc3ccccc31)[C@@H](c1ccc(OC)c(Br)c1)O2
→ 10.6%	9.8

Only part of the results is shown. The share of hits here may be higher or lower than overall.
